Assay outcomes (PubChem)
SENP1 inh: blocks the human SENP1 SUMO protease catalytic domain. 0.21% of 360,000 active. inhibition, % at 10 µM. recombinant SENP1 catalytic domain, CyPet-SUMO1-YPet FRET cleavage. AID 624204;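 active = inhibition at least 30% at 10 µM, raw YFP signal under a set limit, fluorescence ratio 0.5 to 1.5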;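 note: 0% = enzyme with DMSO and 100% = no enzyme wells; some results filed as inactive read as strong as hits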
Target sequence (Q9P0U3 419-644 limits assumed): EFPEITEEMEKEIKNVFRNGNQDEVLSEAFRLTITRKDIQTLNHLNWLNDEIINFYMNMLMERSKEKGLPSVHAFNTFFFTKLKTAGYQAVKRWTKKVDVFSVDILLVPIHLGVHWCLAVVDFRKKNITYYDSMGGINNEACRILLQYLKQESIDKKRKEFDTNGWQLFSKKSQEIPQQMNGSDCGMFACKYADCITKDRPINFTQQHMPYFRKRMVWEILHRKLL
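Compound: 10 µM single point, 0.5% DMSO; Test system: hSENP1 catalytic domain, recombinant; Timing: 50 min reaction at room temperature; Technique: FRET, CFP and YFP emission; Control set: no-enzyme wells low, DMSO-plus-enzyme wells high control.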
HKDC1 inhibitor: HKDC1 (human) hexokinase inhibition; Q2TB90; recombinant HKDC1, G6PDH/diaphorase resazurin coupled fluorescence; inhibition, % at 20 µM; 0.16% of 340,000 active;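 active = inhibition above about 35% when tested at 20 µM, limit read from the data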;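 note: plate controls were DMSO wells with enzyme for no effect and DMSO wells lacking enzyme for full effect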
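Assay system – recombinant HKDC1 (HK5) hexokinase enzyme, produced in-house · Input – HKDC1 at 5 µg/mL · Reagent – glucose plus 1 mM ATP as hexokinase substrates · Timing – 90 min reaction incubation at room temperature, dark · Measured by – G6PDH/diaphorase-coupled fluorescence, 1 mM NADP, 100 µM resazurin, 525/613 nm · Benchmarks – DMSO-enzyme wells negative, buffer-substituted wells positive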
Apaf-1 inh: inhibitors of human Apaf-1 apoptosome; inhibition, % at 20 µM; O14727; 0.71% of 330,000 active; reconstituted apoptosome caspase-3 activity, DEVD-Rh110 fluorescence; AID 489030; active = inhibition of at least 40% at 20 µM;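 note: plate controls were DMSO wells for no effect and DEVD-CHO caspase inhibitor wells for full effect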
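Material: cell-free apoptosome with Apaf-1, procaspase-3 and caspase-9; Buffer or medium: Hepes pH 7.5 with detergent and BSA; Reagent: cytochrome c trigger plus (Z-DEVD)2-Rh110 caspase-3 substrate; Times: compound with Apaf-1, dATP, procaspase-3 30 min, then 50 min reaction, room temperature; Technique: Rh110 fluorescence intensity.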
SENP8 block: inhibitors of human SENP8 protease | inhibition, % at 20 µM | AID 602440 | 0.64% of 360,000 active | Q96LD8 | recombinant SENP8, Nedd8 substrate fluorescence; in the data active = inhibition mostly above about 40%, no sharp cut-off; inactive = mostly below about 27%
Target sequence (Q96LD8 whole entry, looked up): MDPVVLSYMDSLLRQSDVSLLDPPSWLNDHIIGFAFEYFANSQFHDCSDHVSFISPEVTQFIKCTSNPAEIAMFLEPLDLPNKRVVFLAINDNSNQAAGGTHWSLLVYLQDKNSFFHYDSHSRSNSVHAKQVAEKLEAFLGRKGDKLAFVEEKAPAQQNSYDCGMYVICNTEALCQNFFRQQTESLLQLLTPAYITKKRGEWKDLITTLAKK
PfGluPho inh: PfG6PD (Plasmodium falciparum) enzyme inhibition | PfGluPho enzyme, NADPH resazurin-diaphorase fluorescence | 0.78% of 350,000 active | inhibition, % at 20 µM;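 active = inhibition reaching at least a set limit at 20 µM in the primary screen, cut at about 59% in these data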;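 note: 0% = DMSO wells with substrate and 100% = DMSO wells lacking glucose-6-phosphate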
NLRP3 yeast inh: blocks the NALP3 inflammasome reconstituted in yeast | Yeast reconstituted NLRP3/ASC/caspase-1, beta-gal luminescence, 24 h | inhibition, % at 10 µM | 0.39% of 330,000 active;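 active = inhibition of 50% or more; inactive = inhibition below 50%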;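 note: plate controls were induced DMSO wells for no effect and uninduced yeast grown without galactose for full effect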
* marks the source's active call; other numbers are inactive results; nt = not tested or not shown.

SMILES	SENP1 inh	HKDC1 inhibitor	Apaf-1 inh	SENP8 block	PfGluPho inh	NLRP3 yeast inh
Cc1cc(C)c(C(N)=O)c(NCCc2ccccc2)n1	0	-7	-12	-171	2	8
Cc1ccc(OCc2nnc(SCC(=O)Nc3ccc4c(c3)OCCO4)n2Cc2ccco2)cc1	0	-1	21	10	-1	-14
COc1ccc(S(=O)(=O)NCc2ccc(C(=O)N3CCN(c4ccccn4)CC3)cc2)cc1	-2	-4	20	14	7	2
O=C(CSc1nc(O)cc(=O)[nH]1)N1c2ccccc2CCc2ccccc21	0	11	1	15	-22	12
Cc1nn(-c2ccccc2)c(C)c1C(=O)NCc1ccccc1F	-1	-5	6	2	6	8
COc1ccccc1C(CC(=O)Nc1ccc(C)c(C)c1)c1ccc(OC(C)C)cc1 (stereo not drawn)	0	0	-4	6	4	-5
COc1ccc(/C=N/NC(=O)c2ccc3c(c2)OCCO3)cc1[N+](=O)[O-]	1	1	-22	17	-9	-3
COc1ccc(/C=N/Nc2cn[nH]c(=O)c2Cl)cc1	4	0	5	-385	-4	-2
CC(C)(C)NC(=O)c1ccc2c3c(cccc13)CC2	1	-11	4	-95	-10	10
CC(C)NC(=O)CC(=O)NN=C1CCCCC1	2	-2	-2	9	-9	11
Nn1c(SCC(=O)Nc2ccc(S(N)(=O)=O)cc2)nnc1C(F)(F)F	2	14	0	17	8	-4
Cc1[nH]n(-c2ccccc2)c(=O)c1/C=N/O	2	-10	-6	12	-13	1
O=[N+]([O-])c1cc(C(F)(F)F)ccc1NCCOc1ccccc1	5	3	11	33	6	13
CN(Cc1ccccc1)C(=O)COC(=O)c1cc(=O)c2ccccc2o1	3	1	-10	21	5	7
Cc1cccc(Nc2ncnc3nc[nH]c23)c1C	2	-4	2	0	12	13
COCCn1c(SCc2cnc(-c3ccccc3)s2)nnc1-c1ccncc1	-3	5	-7	-8	6	10
Cc1ccc(NC(=O)COC(=O)c2ccc(C)c(S(=O)(=O)N3CCOCC3)c2)cc1	2	1	15	-5	12	7
C1=C(c2ccccc2)Nc2ccccc2N=C1c1ccccc1	-1	7	10	-18	-2	7
CC1=N/C(=C\c2ccc(OC(C)C)cc2)C(=O)N1c1ccc(C(=O)O)cc1	-2	5	2	-40	2	12
O=C(/C=C/NNC(=O)c1ccccc1O)c1ccccc1	2	-8	10	-38	-28	19
COc1cc(C)c(S(=O)(=O)NCc2ccc3c(c2)OCO3)cc1C	2	1	11	-7	10	14
Cc1cccc(-n2c(SCC(N)=O)nnc2-c2ccco2)c1	2	-2	-1	8	-11	15
FC(F)(F)c1cnc(Oc2cccc3ccccc23)c(Cl)c1	-10	6	7	8	3	9
C=CCn1c(CCNC(=O)c2cccs2)nnc1SCC(=O)Nc1cccc(F)c1	2	-11	-12	12	18	-12
COc1cc(NS(=O)(=O)c2ccc(NC(=S)NC(=O)c3ccco3)cc2)ncn1	0	-7	14	14	-14	27
Cc1ccc(C(=O)N/N=C\c2cc3c(cc2Br)OCO3)cn1	1	-7	4	-90	9	10
CCOC(=O)CN1C(=O)N(c2ccccc2OC)S(=O)(=O)c2ccccc21	0	-1	3	11	-1	10
CC(=O)NS(=O)(=O)c1cccnc1Nc1cccc(Cl)c1	3	-1	-12	-49	-16	0
COc1cc2cnc(-c3ccccc3)cc2cc1OC	0	3	15	-19	22	47
O=C(CSc1ccc2nnc(CCNC(=O)c3ccccc3)n2n1)Nc1ccccc1F	-2	4	-24	4	16	10
CS(=O)(=O)c1ccc2nc(NC(=O)C3CC(=O)N(c4ccccc4)C3)sc2c1 (stereo not drawn)	4	-5	3	4	6	-8
CC1CCN(C(=O)CSc2n[nH]c(-c3cccs3)n2)CC1	1	4	4	15	-7	11
Cc1cc(C)c(S(=O)(=O)Nc2cccnc2)c(C)c1	1	1	17	28	18	9
COc1ccc(/C=N/NC(=O)c2cccc([N+](=O)[O-])c2)cc1OC(=O)c1ccc(C)cc1	0	3	15	34	-13	1
CC1=C(C(=O)Nc2cccnc2)C(c2cccnc2)n2ncnc2N1 (stereo not drawn)	3	4	-4	12	-4	9
COc1ccc(NC(=O)Nc2ccc(Cc3ccncc3)cc2)cc1OC	0	-1	3	21	5	14
CN(Cc1ccccc1)C(=O)CCS(=O)(=O)c1cc2c(cc1Cl)NC(=O)CO2	2	-7	-2	1	-5	5
CSCC[C@@H](C(=O)O)N1Cc2ccccc2C1=O	1	10	-9	26	4	14
CC(C)(C)c1ccc(C(=O)NCCOc2ccccc2)cc1	0	-4	5	5	3	34
COc1ccc(NC(=O)c2ccc([N+](=O)[O-])s2)c([N+](=O)[O-])c1	3	-2	-25	30	-7	16

Among those listed so far, 6 have two or more sulfur atoms.
SMILES	SENP1 inh	HKDC1 inhibitor	Apaf-1 inh	SENP8 block	PfGluPho inh	NLRP3 yeast inh
Nn1c(SCC(=O)Nc2ccc(S(N)(=O)=O)cc2)nnc1C(F)(F)F	2	14	0	17	8	-4
COCCn1c(SCc2cnc(-c3ccccc3)s2)nnc1-c1ccncc1	-3	5	-7	-8	6	10
C=CCn1c(CCNC(=O)c2cccs2)nnc1SCC(=O)Nc1cccc(F)c1	2	-11	-12	12	18	-12
COc1cc(NS(=O)(=O)c2ccc(NC(=S)NC(=O)c3ccco3)cc2)ncn1	0	-7	14	14	-14	27
CS(=O)(=O)c1ccc2nc(NC(=O)C3CC(=O)N(c4ccccc4)C3)sc2c1 (stereo not drawn)	4	-5	3	4	6	-8
CC1CCN(C(=O)CSc2n[nH]c(-c3cccs3)n2)CC1	1	4	4	15	-7	11

New compounds follow:
SMILES	SENP1 inh	HKDC1 inhibitor	Apaf-1 inh	SENP8 block	PfGluPho inh	NLRP3 yeast inh
Cc1ccc(C2NC(=O)c3ccccc3N2)s1 (stereo not drawn)	-10	1	6	-270	0	5
Cc1nn(-c2ccc(Cl)cc2)c2[nH]c(=O)c(CNCc3ccc4c(c3)OCO4)cc12	-5	-4	8	-54	23	-7
COc1ccccc1NC(=O)COc1ccc2ccccc2c1	-3	4	18	1	18	39
CN(C)C(=O)c1ccc2c3c(cccc13)CC2	-1	-10	-9	4	-7	17
Cc1ccc(NC(=O)c2cc(S(=O)(=O)N3CCCCC3)cs2)cc1	1	9	8	0	7	19
COc1cc(/C=C/c2cc(C(=O)O)c3ccccc3n2)cc(OC)c1O	-3	3	-11	-273	27	14
COCCCNC(=O)C(=O)N/N=C/c1cc2c(cc1Br)OCO2	2	-8	0	-150	2	-2
Cc1[nH]c(=O)[nH]c(=O)c1S(=O)(=O)NCCOC12CC3CC(CC(C3)C1)C2	0	-3	-5	23	-1	5
O=C(c1ccc2c(c1)OCO2)N1CCN=C1SCc1ccccc1	0	-3	-7	7	-2	21
CC(=O)Nc1ccc(C=NNC(=O)c2ccc(NS(=O)(=O)c3cccs3)cc2)cc1	3	6	0	-303	-6	28
O=C(Nc1ccccc1N1CCCCC1)c1cccc([N+](=O)[O-])c1	1	4	14	-3	2	-12
CCCn1c(C2CCCN2c2nc(-c3cccc(Br)c3)cs2)nc2cc(Cl)c(Cl)cc21 (stereo not drawn)	-5	0	30	-5	8	-5
COc1cc(/C=N/Nc2ccccc2[N+](=O)[O-])ccc1OC(=O)c1ccccc1F	6	-5	-2	21	2	23
CCC(=O)Nc1ccc2c(c1)C(=O)N(C1CCCCC1)C2=O	0	-9	-13	-265	-3	32
CNC(=O)CSc1nnc(-c2ccc(S(=O)(=O)N3CCCC3)cc2)n1-c1cccc(C)c1C	5	-7	-9	8	2	12
O=C(NCc1ccc2c(c1)OCO2)c1cccc(N2CCCC2=O)c1	2	-6	2	4	-2	-3
C=CCN(c1ccccc1)S(=O)(=O)c1cc2c(cc1C)NC(=O)CO2	0	4	8	-11	-13	21
Cc1c(NS(=O)(=O)c2cccc(C(=O)Nc3ccccc3)c2)c(=O)n(-c2ccccc2)n1C	1	-3	7	-2	-8	11
Cc1cc(C)c(C(N)=O)c(NC(=O)Nc2ccccc2)n1	1	8	8	5	-2	8
CN1CCN(c2ccc(S(=O)(=O)N3CCCCC3)cc2NC(=O)c2cccc([N+](=O)[O-])c2)CC1	5	-11	4	14	19	25
Cc1nn(Cc2ccc(F)cc2)c(C)c1NC(=O)c1nn(C)cc1Cl	1	-5	-1	12	-6	9
CCn1c(COc2cccc(C)c2)nnc1SCC(=O)Nc1cccc(C(=O)O)c1	4	0	2	9	-13	19
Cc1ccc2nc3c(nc2c1)-c1ccccc1C3=O	3	-1	-7	18	-10	13
CCCOC(=O)c1ccc(OC(=O)c2ccco2)cc1	1	-8	4	8	5	0
COc1ccc2c3n([n+]([O-])c2c1)CCN=C3c1cc(Cl)c(N)c(Cl)c1	-6	11	7	-45	5	3
O=S(=O)(NCc1ccc2c(c1)OCO2)c1ccc(Cl)s1	-8	7	10	10	9	31
CCOC(=O)C1(CC2CCCCO2)CCN(S(=O)(=O)c2ccccc2)CC1 (stereo not drawn)	2	0	3	10	-5	26
COc1ccc(OC)c(-n2c(-c3cccc(O)c3)n[nH]c2=S)c1	4	2	-6	-3	48	19
CC(C)NC(=O)NC(=O)CSc1nnc(C(F)(F)F)n1C	7	-11	6	16	-11	8
Cc1cc(C)c(S(=O)(=O)Nc2cccc(-n3cnnn3)c2)c(C)c1	2	-1	11	10	-1	10
CC(C)Cc1nc2n[nH]c(N)c2c2c1CCC2	-2	6	19	-35	12	3
CCOC(=O)N1CCN(C(=O)c2ccc(CNS(=O)(=O)c3ccc(NC(C)=O)cc3)cc2)CC1	3	-1	-10	10	5	2
Cc1cc(-c2csc(NC(=O)c3ccc(C#N)cc3)n2)c(C)n1Cc1ccco1	10	-1	-5	14	-11	13
CCN(CC)C(=O)CNc1ccc(C(F)(F)F)cc1[N+](=O)[O-]	-2	-8	2	15	4	11
COc1cc(Br)c(CC(=O)NC2CC2)cc1OC	-1	2	6	2	-11	-3
COc1cc(NS(=O)(=O)c2ccc(NC(=S)NC(=O)c3ccccc3)cc2)nc(OC)n1	0	5	5	4	-18	18
CN(Cc1nc2ccc(F)cc2[nH]1)Cc1c(C(=O)N(C)C)nc2ccc(Cl)cn12	-7	-4	0	-9	4	10
Clc1cccc(Nc2ncnc3c2cnn3-c2ccccc2)c1	-2	-1	14	-126	83*	53*
COc1ccc(C2/C(=C(/O)c3ccccc3)C(=O)C(=O)N2C)cc1OC (stereo not drawn)	0	3	10	24	-4	12
C/C(=N\NC(=O)CSc1nc(C)cc(C)n1)c1ccc([N+](=O)[O-])cc1	0	4	-19	24	-15	21
O=C(OCc1ccc(F)cc1)c1cc(=O)c2ccccc2o1	1	-1	5	13	-8	6
CCCN1CCN(C(=O)CCCNC(=O)Cn2cnc3sc(C)c(C)c3c2=O)CC1	-1	0	0	4	-7	6
COc1ccc(C2C3=C(Nc4ncnn42)c2ccccc2CC3)cc1OC (stereo not drawn)	nt	nt	12	nt	nt	15
CC(C)(C)c1ccc(S(=O)(=O)N2CCC(CO)(CC3CCCCO3)CC2)cc1 (stereo not drawn)	-2	18	15	15	-17	11
CC(Sc1nc(-c2ccccc2)nc2c1COC(C)(C)C2)C(=O)N1CCOCC1 (stereo not drawn)	1	-1	-6	8	-13	18
C=CCSc1n[nH]c(-c2ccc(OC)cc2)n1	1	-2	0	7	11	29
COc1ccc(-c2cccc(NS(=O)(=O)c3ccc([N+](=O)[O-])cc3)c2)nn1	3	-1	14	10	3	15
CNC(=O)CSc1nnc(-c2ccco2)n1-c1ccc(C)cc1	2	-3	-6	13	-11	6

The list is partial; rates above refer to the full screens.
